Yeast UUG start: yeast start codon fidelity modulation. S. cerevisiae UUG-firefly luciferase reporter, luminescence/redox ratio. activity score, % at 18.7 µM. 350,000 tested, 0.13% active. AID 602363;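 active means replicate mean at a twofold rise or more, about +100% in these data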;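 further: firefly luciferase made from a UUG start codon reports start codon fidelity; reporter light over untreated wells divided by growth signal over untreated wells; some hits fall short of that in this replicate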
HIV Env fusion: inhibitors of HIV Env-mediated cell fusion; HeLa-JRFL Env/CEM21 cell fusion, luciferase; AID 651610; inhibition, % at 12.3 µM; 360,000 tested, 1.1% active;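 active means mean replicate inhibition score of at least 50 and every replicate individually at or above 50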;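 further: 0% = plate neutral controls and 100% = maraviroc near 300 nM; one replicate is shown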
* = called active by the depositor; [ ] = dose if it differs, or a comment.

SMILES | Yeast UUG start | HIV Env fusion
C[C@@H]1CN([C@H](C)CO)C(=O)Cc2cc(NC(=O)c3ccncc3)ccc2O[C@@H]1CN(C)C(=O)Nc1ccc2c(c1)OCO2 | -10.8 | -15.8[16.7 µM]
C[C@H]1CN([C@@H](C)CO)C(=O)c2cc(C3=CCCC3)cnc2O[C@@H]1CN(C)S(=O)(=O)c1cn(C)cn1 | -3.5 | -8.3[16.7 µM]
Cc1noc(C)c1NC(=O)N(C)C[C@@H]1Oc2c(NS(=O)(=O)c3c(C)noc3C)cccc2C(=O)N([C@H](C)CO)C[C@@H]1C | -0.5 | -49.8[16.7 µM]
O=C(Nc1ccccc1)N[C@H]1CC[C@H](CCn2cc(C3(O)CCCC3)nn2)O[C@H]1CO | 1.1 | -6.9[16.7 µM]
CCC(=O)Nc1ccc2c(c1)C(=O)N(C)C[C@H](OC)[C@H](C)CN(C(=O)c1ccncc1)[C@@H](C)CO2 | -8.5 | -0.2[16.7 µM]
N#C[C@@H]1[C@@H](c2ccc(C3=CCCC3)cc2)[C@@H](CO)N1C(=O)C1CCC1 | -7.5 | 1.3[16.7 µM]
CCCN1C[C@H](C)[C@@H](OC)CN(C)C(=O)c2cc(NC(=O)c3ccc(F)cc3)ccc2OC[C@H]1C | 1.5 | 1.6[16.7 µM]
CNC(=O)C[C@H]1CC[C@@H]2[C@H](COc3ccc(NC(=O)c4ccc(OC)cc4)cc3C(=O)N2C)O1 | 7.4 | -6.3[16.7 µM]
C[C@@H]1CN([C@H](C)CO)C(=O)c2cc(NC(=O)c3ccccc3)ccc2O[C@@H](C)CCCCO[C@@H]1CN(C)C(=O)CCC(F)(F)F | 11.4 | 14.9[16.7 µM]
C[C@H](CO)N1C[C@H](C)[C@H](CN(C)C(=O)Cc2ccccn2)Oc2cc(C#C[C@@H](C)O)ccc2S1(=O)=O | -9.4 | -2.0[16.7 µM]
CO[C@@H]1CN(C)C(=O)c2cc(NC(=O)Cc3ccccc3)ccc2OC[C@@H](C)N(C)C[C@@H]1C | 7.3 | 3.5[16.7 µM]
COCC#Cc1cnc2c(c1)C(=O)N([C@H](C)CO)C[C@@H](C)[C@H](CN(C)Cc1ccccc1)O2 | 1.8 | -21.1[16.7 µM]
C[C@H](CO)N1C[C@H](C)[C@@H](CN(C)C(=O)Nc2ccc(C(C)(C)C)cc2)OCc2cn(nn2)CCCC1=O | 5.3 | -18.4
C[C@H](CO)N1C[C@H](C)[C@H](CN(C)Cc2ccc3c(c2)OCO3)Oc2c(NC(=O)c3cnccn3)cccc2C1=O | -7.0 | -2.8[16.7 µM]
C[C@@H]1CCCCO[C@H](CN(C)C)[C@@H](C)CN([C@H](C)CO)C(=O)c2cc(NC(=O)Nc3ccc4c(c3)OCO4)ccc2O1 | 14.0 | 12.6[16.7 µM]

Entries of single compounds, looked up by structure. Screens in order: Yeast UUG start | HIV Env fusion
Shown for CNC(=O)C[C@H]1CC[C@@H]2[C@H](COc3ccc(NC(=O)c4ccc(OC)cc4)cc3C(=O)N2C)O1 = 7.4 | -6.3[16.7 µM]
Shown for C[C@H]1CN([C@@H](C)CO)C(=O)c2cc(C3=CCCC3)cnc2O[C@@H]1CN(C)S(=O)(=O)c1cn(C)cn1 = -3.5 | -8.3[16.7 µM]

(cont.)
SMILES | Yeast UUG start | HIV Env fusion
CC(C)CC#Cc1ccc2c(c1)O[C@@H](CN(C)C)[C@H](C)CN([C@H](C)CO)S2(=O)=O | 4.9 | 17.9[16.7 µM]
C[C@@H]1CCCCO[C@H](CN(C)Cc2ccncc2)[C@H](C)CN([C@H](C)CO)C(=O)c2cc(NC(=O)CCC(F)(F)F)ccc2O1 | -2.9 | -4.9[16.7 µM]
O=C(Nc1ccc(Cl)cc1)N[C@@H]1CC[C@@H](CCNC(=O)c2ccccc2F)O[C@@H]1CO | -30.0 | 21.3[16.7 µM]
Cc1noc(C)c1S(=O)(=O)Nc1ccc2c(c1)C(=O)N([C@@H](C)CO)C[C@@H](C)[C@@H](CN(C)S(C)(=O)=O)OCCCC[C@@H](C)O2 | -17.3 | -13.8[16.7 µM]
Cc1ccc(S(=O)(=O)Nc2cccc3c2O[C@H](CN(C)Cc2ccc(C(=O)Nc4ccccc4N)cc2)[C@H](C)CN([C@H](C)CO)C3=O)cc1 | 6.7 | -100.4[16.7 µM]
CCS(=O)(=O)NCC[C@H]1CC[C@H](NC(=O)C2CCOCC2)[C@H](CO)O1 | -12.5 | 15.5[16.7 µM]
COc1ccc(S(=O)(=O)Nc2cccc3c2O[C@@H](CN(C)Cc2ccc(C(F)(F)F)cc2)[C@H](C)CN([C@H](C)CO)C3=O)cc1 | 12.6 | -115.7[16.7 µM]
N#C[C@H]1[C@H](c2ccc(-c3cccnc3)cc2)[C@@H](CO)N1C(=O)C1CC1 | -1.4 | 2.8[16.7 µM]
COc1cccc(-c2cnc3c(c2)C(=O)N([C@H](C)CO)C[C@@H](C)[C@@H](CN(C)Cc2ccncc2)O3)c1 | -5.8 | 12.4[16.7 µM]
O=C(C[C@H]1CC[C@H](NC(=O)C2CCC2)[C@H](CO)O1)NCc1ccncc1 | 1.4 | -12.7[16.7 µM]
C[C@H]1CN([C@@H](C)CO)C(=O)c2cc(C#Cc3ccccc3)cnc2O[C@@H]1CN(C)C(=O)c1ccccn1 | -6.6 | 10.7[16.7 µM]
C[C@@H]1CCCCO[C@@H](CN(C)C(=O)c2ccccc2)[C@@H](C)CN([C@H](C)CO)C(=O)c2cc(NC(=O)Nc3ccc(C(F)(F)F)cc3)ccc2O1 | -6.6 | 5.9[16.7 µM]
C[C@H](CO)N1C[C@H](C)[C@H](CN(C)Cc2ccc(Oc3ccccc3)cc2)Oc2c(NC(=O)C3CC3)cccc2C1=O | -3.5 | -24.6[16.7 µM]
C[C@@H]1CN([C@@H](C)CO)S(=O)(=O)c2ccc(-c3ccc(C#N)cc3)cc2O[C@H]1CN(C)C | -7.8 | -4.0[16.7 µM]
COC(=O)C[C@@H]1CC[C@@H]2[C@H](COc3ccc(NC(=O)c4cc(F)cc(F)c4)cc3C(=O)N2C)O1 | 10.5 | -7.5[16.7 µM]
Cc1noc(C)c1NC(=O)Nc1cccc2c1O[C@@H](CN(C)S(=O)(=O)c1ccc(Cl)cc1)[C@H](C)CN([C@H](C)CO)C2=O | -4.8 | -1.0[16.7 µM]
O=C(C[C@H]1CC[C@H]2[C@@H](COC[C@@H](O)CN2Cc2cc(F)cc(F)c2)O1)NC1CCCC1 | -0.8 | 16.9[16.7 µM]
C[C@H](CO)N1C[C@H](C)[C@@H](CN(C)C(=O)Nc2ccccc2F)Oc2cc(-c3ccccc3)ccc2S1(=O)=O | -2.4 | -12.0[16.7 µM]
C[C@H](CO)N1C[C@H](C)[C@H](CN(C)C(=O)Nc2ccc(C(F)(F)F)cc2)OCCCC[C@H](C)Oc2ccc(NC(=O)Nc3ccc(F)cc3)cc2C1=O | -2.3 | -26.5[16.7 µM]
O=C(C[C@@H]1CC[C@@H]2[C@H](COC[C@H](O)CN2CCC(F)(F)F)O1)NCc1ccc(Oc2ccccc2)cc1 | -4.8 | -5.1[16.7 µM]
Cc1ccc(S(=O)(=O)N[C@@H]2CC[C@@H](CCn3cc(C4CCCCC4)nn3)O[C@@H]2CO)cc1 | -2.1 | -3.9[16.7 µM]
O=C(C[C@H]1C=C[C@H](NC(=O)c2cnccn2)[C@H](CO)O1)NCc1ccccc1F | -8.4 | -0.1[16.7 µM]
C/C=C/c1ccc2c(c1)O[C@H](CN(C)C(=O)c1ccccn1)[C@H](C)CN([C@@H](C)CO)S2(=O)=O | 2.3 | 17.0[16.7 µM]
C/C=C/c1ccc2c(c1)O[C@@H](CN(C)C)[C@@H](C)CN([C@H](C)CO)S2(=O)=O | -0.4 | -22.4[16.7 µM]
COc1ccc(CN(C)C[C@H]2Oc3ccc(NS(=O)(=O)c4ccc(OC)cc4)cc3C(=O)N([C@H](C)CO)C[C@H]2C)cc1 | 15.1 | 5.3[16.7 µM]
O=C(C[C@@H]1C[C@H]2c3cc(NC(=O)Nc4ccc(F)cc4)ccc3O[C@H]2[C@H](CO)O1)NC1CCCCC1 | 2.8 | 21.1[16.7 µM]
COc1ccc(NC(=O)Nc2ccc3c(c2)C(=O)N([C@@H](C)CO)C[C@@H](C)[C@@H](CN(C)S(=O)(=O)c2c(C)noc2C)OCCCC[C@@H](C)O3)cc1 | 0.9 | -53.6[16.7 µM]
O=C(C[C@@H]1C[C@@H]2c3cc(NC(=O)C4CCC4)ccc3O[C@@H]2[C@H](CO)O1)NCC(F)(F)F | 0.1 | -8.9[16.7 µM]
COC(=O)C[C@@H]1C[C@H]2c3cc(NC(=O)C4CCC4)ccc3O[C@H]2[C@H](CO)O1 | -12.5 | 18.9[16.7 µM]
O=C(NCC[C@@H]1CC[C@H](NC(=O)Nc2cc(F)ccc2F)[C@@H](CO)O1)Nc1ccc(F)cc1 | -4.6 | 4.8[16.7 µM]
COc1ccc(-c2cnc3c(c2)C(=O)N([C@@H](C)CO)C[C@@H](C)[C@@H](CN(C)Cc2cccnc2)O3)cc1 | 0.5 | 4.7[16.7 µM]
CCCC#Cc1cnc2c(c1)C(=O)N([C@H](C)CO)C[C@H](C)[C@@H](CN(C)Cc1cccnc1)O2 | 74.8 | -14.1[16.7 µM]
CN(C)CC(=O)N[C@H]1CC[C@H](CC(=O)NCc2ccccc2F)O[C@@H]1CO | -8.9 | 6.0[16.7 µM]
COc1ccccc1S(=O)(=O)N[C@H]1CC[C@@H](CC(=O)N2CCN(C)CC2)O[C@H]1CO | 5.9 | 57.0*[16.7 µM]
C[C@H](CO)N1C[C@H](C)[C@@H](CN(C)S(C)(=O)=O)Oc2ccc(N(C)C)cc2CC1=O | -11.2 | -11.5[16.7 µM]
C[C@H](CO)N1C[C@H](C)[C@H](CN(C)Cc2ccc(Oc3ccccc3)cc2)Oc2ccc(NC(=O)Cn3cnnn3)cc2CC1=O | 3.2 | -25.7[16.7 µM]
COc1ccc(NC(=O)Nc2ccc3c(c2)CC(=O)N([C@@H](C)CO)C[C@@H](C)[C@H](CN(C)S(=O)(=O)c2ccc(F)cc2)O3)cc1 | 12.8 | -7.5[16.7 µM]
C[C@@H]1CCCCO[C@@H](CN(C)C(=O)C2CCCCC2)[C@@H](C)CN([C@H](C)CO)C(=O)c2cc(NC(=O)Nc3ccccc3)ccc2O1 | -4.0 | -26.8[16.7 µM]
CNC(=O)C[C@@H]1CC[C@H]2[C@@H](COc3ccc(NC(=O)c4cnccn4)cc3C(=O)N2C)O1 | 1.2 | -9.7[16.7 µM]
CCS(=O)(=O)N[C@H]1C=C[C@@H](CC(=O)Nc2ccc(-c3ccccc3)cc2)O[C@H]1CO | -5.0 | 1.1[16.7 µM]
COc1ccc(CN(C)C[C@H]2OCCCC[C@H](C)Oc3ccc(NC(=O)Cc4ccccc4)cc3C(=O)N([C@H](C)CO)C[C@H]2C)cc1 | 17.2 | 2.0[16.7 µM]
COc1ccc(NC(=O)Nc2ccc3c(c2)C(=O)N([C@H](C)CO)C[C@H](C)[C@@H](CN(C)C(=O)CCC(F)(F)F)OCCCC[C@H](C)O3)cc1 | -1.7 | 0.8[16.7 µM]
C[C@H](O)C#Cc1cnc2c(c1)C(=O)N([C@H](C)CO)C[C@@H](C)[C@H](CN(C)Cc1cccc(C(=O)O)c1)O2 | -1.4 | 15.5[16.7 µM]
Cc1ccc(S(=O)(=O)N[C@H]2CC[C@H](CC(=O)NCCN3CCCCC3)O[C@@H]2CO)cc1 | -49.4 | 2.0[16.7 µM]
C[C@@H]1CCCCO[C@@H](CN(C)C(=O)NC2CCCCC2)[C@H](C)CN([C@H](C)CO)C(=O)c2cc(NS(=O)(=O)c3ccccc3)ccc2O1 | 3.9 | -4.9[16.7 µM]
C[C@H](CO)N1C[C@H](C)[C@@H](CN(C)C(=O)Nc2cccc3ccccc23)Oc2ccc(NC(=O)Cc3cn(C)c4ccccc34)cc2CC1=O | -11.5 | -5.8[16.7 µM]
C[C@@H]1CCCCO[C@@H](CN(C)C(=O)CCCN(C)C)[C@H](C)CN([C@H](C)CO)C(=O)c2cc(NC(=O)Nc3ccc(C(F)(F)F)cc3)ccc2O1 | 22.3 | 4.4[16.7 µM]
C[C@H](CO)N1C[C@H](C)[C@@H](CN(C)C(=O)Nc2ccc(C(F)(F)F)cc2)Oc2c(NC(=O)C3CC3)cccc2C1=O | -8.7 | -5.1[16.7 µM]
O=C(CCN1CCCCC1)N[C@H]1CC[C@H](CCn2cc(-c3ccccc3)nn2)O[C@@H]1CO | 14.2 | 77.5*[16.7 µM]
C[C@@H]1CCCCO[C@H](CN(C)S(C)(=O)=O)[C@@H](C)CN([C@@H](C)CO)C(=O)c2cc(NC(=O)c3ccccc3)ccc2O1 | 16.8 | 7.1[16.7 µM]
CC(C)NC(=O)N(C)C[C@H]1OCCCC[C@@H](C)Oc2ccc(NS(=O)(=O)c3cccs3)cc2C(=O)N([C@H](C)CO)C[C@@H]1C | -12.8 | -12.7[16.7 µM]
COCC#Cc1cnc2c(c1)C(=O)N([C@@H](C)CO)C[C@@H](C)[C@@H](CN(C)C(=O)c1ccc3c(c1)OCO3)O2 | 15.9 | -28.7[16.7 µM]

A second format for three compounds above.
Results follow in this order: Yeast UUG start	HIV Env fusion
C[C@H](CO)N1C[C@H](C)[C@@H](CN(C)C(=O)Nc2cccc3ccccc23)Oc2ccc(NC(=O)Cc3cn(C)c4ccccc34)cc2CC1=O
    -11.5	-5.8[16.7 µM]
O=C(CCN1CCCCC1)N[C@H]1CC[C@H](CCn2cc(-c3ccccc3)nn2)O[C@@H]1CO
    14.2	77.5*[16.7 µM]
C[C@@H]1CCCCO[C@H](CN(C)S(C)(=O)=O)[C@@H](C)CN([C@@H](C)CO)C(=O)c2cc(NC(=O)c3ccccc3)ccc2O1
    16.8	7.1[16.7 µM]

Pulled by structure from above (2):
SMILES | Yeast UUG start | HIV Env fusion
C[C@H](CO)N1C[C@H](C)[C@@H](CN(C)C(=O)Nc2cccc3ccccc23)Oc2ccc(NC(=O)Cc3cn(C)c4ccccc34)cc2CC1=O | -11.5 | -5.8[16.7 µM]
C[C@H](CO)N1C[C@H](C)[C@@H](CN(C)C(=O)Nc2ccc(C(F)(F)F)cc2)Oc2c(NC(=O)C3CC3)cccc2C1=O | -8.7 | -5.1[16.7 µM]

These rows are one share of the data; the hit share may differ from the screen's.
